Vaccinia mCherry = vaccinia inhibition (mCherry reporter) | Vaccinia virus mCherry reporter infection, fluorescence; about a quarter of the inactives have no number | Potency, µM (highest dose often 36.5 µM), inactives show at the top dose activity change, negative = inhibition, hits mostly inhibitors | hit rate 0.63% among 310,000 | AID 720579; active = well fitted inhibition curve with a large enough effect; inconclusive = small, poorly fitted or top-dose-only effect; inactive = no such curve, though single readings can be large or run the other way; tested in A549 cells; also: nearly all actives have a fitted effect of over 35% in size; inactives centre near -10
Vaccinia Venus = vaccinia inhibition (Venus reporter). Vaccinia virus Venus reporter expression, fluorescence. Potency, µM (top dose mostly 36.5 µM), inactives show at the highest dose activity change, negative = inhibition, actives largely listed as inhibitors. hit rate 0.46% among 330,000; active means well fitted inhibition curve with a large enough effect; inconclusive means small, poorly fitted or top-dose-only effect; inactive means no such curve, though single readings can be large or run the other way; tested in A549 cells; also: nearly all actives have a fitted effect of over 30% in size; inactives centre near -10
Active calls of the source: *; i = inactive; ? = inconclusive; · = no result given; & = joins results of further samples; [ ] = another dose, or the depositor's remark. % is scaled to controls: 0 for no effect and ±100 for the full control effect; potency is read from the fitted curve at half-maximal effect. Compounds were not picked by outcome. About 0.86% of those tested had a hit in this group.

SMILES | Vaccinia mCherry | Vaccinia Venus
Cc1ccc(NC(=O)NCC2CCN(Cc3cccc(Cl)c3)CC2)cc1Cl | ? | -23%
COc1ccccc1NC(=O)Nn1cnnc1 | · | 9%
CCOC(=O)c1sc(NC(=O)CSc2nc3c(c(-c4ccc(OC)cc4)c2C#N)CCCC3)c(C#N)c1C | -2% | -1%
CCCCc1nn2c(=O)cc(CN(CC)c3ccccc3)nc2s1 | -2% | -5%
CN(C)/C=C/c1onc(-c2ccccc2Cl)c1C#N | -3% | 5%
COCC(=O)N1CCC2CC1c1cc(Cl)ccc12 (configuration not stated) | -6% | 1%
COc1cccc(CN(C)C[C@H]2OCc3cnnn3CCCC(=O)N([C@@H](C)CO)C[C@@H]2C)c1 | -2% | -7%
COc1cccc(C2C(C#N)=C(N)Oc3cc(C)oc(=O)c32)c1OC (configuration not stated) | -1% | -21%
O=C(Nc1cc(Cl)ccc1N1CCOCC1)c1ccc(Br)o1 | -19% | -18%
CC(C)C1OC(c2cccc(NC(=O)c3cccs3)c2)OCC1(C)C (configuration not stated) | -7% | -8%
COC(=O)C1=C(c2ccc(OCc3ccccc3)cc2)C[C@@H]2CC[C@H]1N2C(=O)NCCc1ccc(F)cc1 | -25% | ?
COc1ccc(OC)c(NC(=O)CSc2nc(O)cc(=O)n2CC(C)C)c1 | i | -12%
Cc1ccc(S(=O)(=O)n2cccc2CO)cc1 | i | -4%
CSc1cccc(NC(=O)NNC(=O)C2CCN(S(=O)(=O)N(C)C)CC2)c1 | i | -15%
COCCCNC(=O)/C=C/c1ccc(OCc2c(F)cccc2Cl)cc1 | i | 0%
c1coc(-c2cnc3ccccc3n2)c1 | i | -5%
c1ccc2c(-c3nc4ccccc4[nH]3)cccc2c1 | -16% | -28%
Cc1ccc(NC(=S)N/N=C/c2c(C)[nH]c3ccccc23)cc1 | ? | -16%
CC(=O)Oc1ccc2c(=O)c(-c3ccccc3)c(C)oc2c1 | 15% | 4%
CCOC(=O)c1cc(N2CCCCC2)nc2ccccc12 | i | -2%

Reprinted from the part before: three entries, followed by the next part.
SMILES | Vaccinia mCherry | Vaccinia Venus
Cc1ccc(NC(=S)N/N=C/c2c(C)[nH]c3ccccc23)cc1 | ? | -16%
CC(=O)Oc1ccc2c(=O)c(-c3ccccc3)c(C)oc2c1 | 15% | 4%
CCOC(=O)c1cc(N2CCCCC2)nc2ccccc12 | i | -2%
Cc1oc2c(C)c3oc(=O)c(CCC(=O)N4CCC(C(=O)NCCC(=O)O)(c5ccccc5)CC4)c(C)c3cc2c1C | i | -3%
O=C(Nc1cc(N2CCOCC2)ncn1)c1ccccc1 | · | -13%
O=S(=O)(Nc1ncnc2sccc12)c1cccc(F)c1 | -15% | 2%
COc1ccc(NC(=O)NCCCN2CCCCC2C)cc1 (configuration not stated) | -15% | -2%
CS(=O)(=O)N(CC(=O)NCCSCc1ccccc1)c1ccccc1Cl | -3% | -16%
O=C(CC(c1ccccc1)c1cc(Br)ccc1O)N1CCCC1 (configuration not stated) | -6% | 0%
O=c1c2c3c(sc2nnn1Cc1ccc(Br)cc1)CCCC3 | -3% | 3%
Cc1ccc2nc(CSc3nnc(NC(=O)c4cccc(Br)c4)s3)cc(=O)n2c1 | i | -6%
CCOC(=O)[C@@H]1[C@H]2COc3ccccc3[C@@H]2N2C(=O)N(c3cccc(Cl)c3)C(=O)[C@@]12C | i | -14%
CCc1noc(C)c1C(=O)Nc1ccc(C#N)cc1 | i | -9%
Cc1cccc(N2C(=O)CC(Sc3ccccc3C(=O)O)C2=O)c1 (configuration not stated) | -13% | 1%
COc1ccc(C(=O)Cn2c(NCCO)nc3ccccc32)cc1OC | 2% | 1%
Cc1ccc(Cl)cc1NC(=O)CCS(=O)(=O)c1ccc(Br)s1 | -2% | 11%
Cc1cc(C)cc(C(=O)OCC(=O)NCCNC(=O)COC(=O)c2cc(C)cc(C)c2)c1 | -18% | -10%
CCOc1ccccc1C(=O)Nc1cccc(-c2nc3ccccc3s2)c1 | -13% | 0%
Clc1cc(-c2ccc(/C=N/n3cnnc3)o2)ccc1Br | i | -14%
CCOc1ccccc1N1CCN(C(=O)NCc2ccc(Cl)cc2)CC1 | -8% | -22%
COCc1ccc(C(=O)N2CCCC(Nc3ccc(C(C)C)cc3)C2)s1 (configuration not stated) | -6% | -25%
CC1(C)CC(=O)C=C(c2cc3ccccc3s2)C1 | ? | -18%
CCOc1ccc(NC(=O)c2ccccc2O)cc1 | · | -29%
c1ccc2c(-c3nn[nH]n3)cccc2c1 | i | 1%
O=C(COC(=O)c1ccc(F)cc1F)Nc1ncccn1 | i | 7%
COc1ccc(OCC(=O)Nc2ccccc2N2CCCCC2)cc1 | i | -10%
Cc1cccc(-c2cnc3cccnn23)c1 | i | -14%
COC(=O)C(C)Sc1nc2c(cnn2-c2ccc(Cl)cc2)c(=O)[nH]1 (configuration not stated) | i | -18%
Cc1cccc(N(C(=O)CCC(=O)Nc2cc(C)on2)C(C(=O)NC2CCCC2)c2cccnc2)c1 (configuration not stated) | 2% | 0%
CCN(C[C@H]1N[C@@](Cc2ccccc2)(C(=O)OC)[C@H]2C(=O)N(C)C(=O)[C@@H]12)C(=O)Nc1ccccc1 | i | -4%
O=C(O)c1ccc(N2CCCS2(=O)=O)cc1 | 21% | -1%
Cc1ccc(S(=O)(=O)N(C)C)cc1NC(=S)NNC(=O)C1CC1 | -2% | 5%
Cc1nnc(Sc2cc(C(=O)NCCCN(C)Cc3ccccc3)c3ccccc3n2)s1 | -12% | ?
COc1ccc(/C(N)=N/O)c(OC)c1 | i | -13%
Nc1ccccc1Nc1cc(-c2cccc(Cl)c2)nn1-c1ccccc1 | -26% | -6%
N#C/C(=C\c1cc([N+](=O)[O-])c(N2CCOCC2)cc1N1CCOCC1)c1nc2ccccc2[nH]1 | -18% | -11%
C=CCn1c(SCC(=O)N2CCCC2=O)nc2sc(CC)cc2c1=O | i | -12%
Cc1cc2cc(CNC(=O)c3ccc(S(=O)(=O)N4CCCCC4)cc3)ccc2n1C | -8% | ?
CCOC(=O)c1c(C)[nH]c(CCC(=O)Nc2ccccc2OCC)c1C | 0% | -2%
O=C(c1ccccc1)c1cccc(NC(=O)c2ccc(Br)o2)c1 | -27% | -24%
O=C(N/N=C1/CC2C=CCC12)c1ccco1 (configuration not stated) | -11% | -13%
Cn1cc(C(=O)c2ccc(Cl)cc2Cl)cc1C(=O)N/N=C(\N)COc1ccc(F)cc1 | · | ?
O=C(Nc1cccc(-c2csc(-c3ccccc3)n2)c1)c1cccs1 | ? | ?
Cc1[nH]n(-c2ccccc2)c(=O)c1C(=O)Nc1ccccc1 | -12% | -4%
NNC(=O)C1CC1(c1ccccc1)c1ccccc1 (configuration not stated) | -4% | -2%
FC(F)(F)c1ccc2c(c1)C1C=CCC1C(c1ccncc1)N2 (configuration not stated) | 12% | -1%
Cc1cccc(C)c1NC(=O)c1cccnc1 | -15% | -19%
Cc1ccc(C)c(Nc2nc(-c3cccnc3)cs2)c1 | -6% | -24%
O=C(COc1ccccc1C(=O)NCc1ccccc1)Nc1ccc(Br)cc1 | -22% | -24%
CSCC(O)Cn1[nH]c(=O)c2cc(Cl)c(Cl)cc2c1=O (configuration not stated) | i[7.34 µM] | -11%[7.34 µM]
COc1ccc(NS(=O)(=O)c2cc(NC(=O)c3ccc(Cl)cc3)ccc2N2CCOCC2)cc1 | ? | 0%
O=C(COC(=O)c1cccnc1Nc1ccccc1F)NC1CC1 | -12% | -17%
CCOc1ccc(-c2nnc(SCC(=O)NCCC(C)C)nc2-c2ccc(OCC)c(OC)c2)cc1OC | -22% | -14%
O=C(CSc1ccccc1)NCc1ccccn1 | -24% | -10%
COCCCn1c(SCC(=O)Nc2ccc3c(c2)OCCO3)nnc1-c1ccoc1C | -14% | -14%
O=c1c(O)c(-c2ccc(O)cc2O)oc2cc(O)cc(O)c12 | -14%&-9% | -9%&-6%
O=C(COC(=O)/C=C/c1cccs1)NC(=O)Cc1ccccc1 | i | 7%
O=CN1CCCN(C(=O)CC2C(=O)NCCN2Cc2cccc(Oc3ccccc3)c2)CC1 (configuration not stated) | i[7.34 µM] | 0%[7.34 µM]
CC(=O)Nc1ccc(S(=O)(=O)c2ccc(N)cc2)cc1N | 3% | -6%
O=C(Cc1ccccc1)Nc1cccc(-c2nc3cccnc3s2)c1 | -15% | -10%
N#C/C(=C\c1cccc([N+](=O)[O-])c1)c1nnc2n1CCCCC2 | -13% | -13%
CSCC[C@H](NC(=O)OC(C)(C)C)C(=O)NCC1CCC(C(=O)N[C@@H](Cc2ccccc2)C(=O)O)CC1 (some centres not stated) | -9% | 6%
COc1cc(CNc2ccc(CNc3ncn[nH]3)cc2)cc(Cl)c1OCc1ccccc1 | -5% | -23%

(cont.)
SMILES | Vaccinia mCherry | Vaccinia Venus
COc1ccc(-n2c(Cc3cc(=O)[nH]c(=O)[nH]3)nnc2SCC(=O)N2CCCC2)cc1 | 1% | -4%
N#Cc1c2c(c(Nc3ccc(O)cc3)n3c1nc1ccccc13)CCC2 | ? | -28%
CNC(=O)C1CCN(C(=O)c2ccc(-c3ccccc3)cc2)CC1 | · | -13%
Cc1c(C(=O)N2CCC3(CC2)OCCO3)sc2ncnc(N3CCc4ccccc4C3)c12 | i | -16%
c1ccc(Cn2sc(=Nc3ccccc3)nc2-c2ccccc2)cc1 | -15% | -16%
Cc1cc([N+](=O)[O-])nn1CC(=O)Nc1c(C)n(C)n(-c2ccccc2)c1=O | -5% | -6%
COC(=O)Cc1c(C)nc2nc(-c3ccc(Cl)cc3)[nH]n2c1=O | · | 2%
CCOC(=O)Cn1c(=O)n(-c2cccc(Cl)c2)c2nc(-c3ccccc3Cl)nc(C(N)=O)c21 | i | -1%
O=C(O)c1ccc(NS(=O)(=O)c2ccc(Cl)c(C(=O)Nc3ccccc3)c2)cc1 | -7% | 0%
Cc1ccc(NC(=O)CSc2nc(-c3ccco3)cc(C(F)(F)F)n2)c(C)c1 | ? | ?
CN1CCCCc2c1[nH]c1ccccc1c2=O | 2% | -14%
COCCOC(=O)C1=C(C)Nc2nc(C)nn2C1c1ccc(F)cc1 (configuration not stated) | -6% | 0%
O=C(/C=C/c1ccc(Cl)cc1)N1CCN(Cc2ccccc2)CC1 | -25% | -19%
O=C(Nc1ccccc1N1CCOCC1)c1ccc([N+](=O)[O-])o1 | 11µM* | ?
COc1cc2[nH]c3c(c2cc1OC)CCN1CCCC[C@@H]31 | -1% | -1%
CCNC(=S)N/N=C/c1sc(N2CCCCC2)nc1-c1cccs1 | -17% | 4%
COc1ccc(N(CC(=O)NC2CC3CCC2C3)S(=O)(=O)c2ccccc2)cc1Cl (configuration not stated) | -4% | -18%
CNC(=O)C12CC3CC(C1)CC(c1ccc(C)cc1)(C3)C2 | -3% | -13%
CC(C)(C)N1C(=O)c2ccccc2NC(=O)C1C(=O)NCc1ccco1 (configuration not stated) | -13% | 4%
Cc1cc(C)n(C(=O)c2ccc([N+](=O)[O-])cc2N)n1 | -2% | -8%
c1ccc(CNc2nc3ccccc3[nH]2)cc1 | -22% | -15%
O=C(C1CCN(S(=O)(=O)c2cccc3nsnc23)CC1)N1CCn2c1nc1ccccc12 | -26% | -12%
O=C(NCCC1=CCCCC1)C(c1ccccc1)c1ccccc1 | · | -23%
CN1OC[C@@H]2CN(C(=O)C(C)(C)C)[C@H](c3cccc(-c4ccccc4)c3)C[C@@H]21 | -5% | -1%
CCCCNc1nc(Cl)nc(Nc2ccc(C)cc2)n1 | -11% | -9%
Oc1cccc(/C=N/N=C/c2cccc(O)c2O)c1O | i | -15%
CC(Sc1nc(N)cc(=O)[nH]1)C(=O)Nc1sc2c(c1C#N)CCCC2 (configuration not stated) | -26% | -16%
Clc1cccc(C2=NOC(c3nnc(-c4ccccc4)o3)C2)c1 (configuration not stated) | 4% | -11%
Cc1ccc(/C=N/NC(=O)CNC(=O)COc2ccccc2)cc1 | i | -23%
O=C(CSc1nc(-c2ccco2)nc2cc(=O)[nH]n12)Nc1ccccc1F | 10% | 1%
CC1CCN(CC(=O)Nc2ccc3c(c2)OCO3)CC1 | i | 2%
CSc1nc2[nH]ncc2c(=O)[nH]1 | -3% | -4%
CCCN1C(=O)C(O)(CC(=O)c2ccc(CC)cc2)c2ccccc21 (configuration not stated) | -10% | -11%
O=C(COc1ccccc1)N1CCN=C1c1ccccc1 | -6% | -10%
O=C(COC(=O)C1CCN(S(=O)(=O)c2cccs2)CC1)Nc1ccccc1Br | -14% | -11%
CCOC(=O)N/N=C\C=C\c1ccc2c(c1)OCO2 | i | -15%
CCOC(=O)COc1ccccc1/C=C1\NC(=O)NC1=O | -12% | 0%
Nc1ccc(Nc2ccccc2)c(Cl)c1 | -3% | 2%
CC(NC(=O)c1cc(-c2cccnc2)nc2ccc(Br)cc12)C1CCCO1 (configuration not stated) | i | 3%
CCn1c(CN2CCOCC2)nc2cc(NC(=O)c3cc(OC)c(OC)c(OC)c3)ccc21 | -15% | 0%

Compound activity (PubChem)
